LYPLA2 counter: counter-screen for PME1 inhibitors: inhibitors of human LYPLA2; recombinant LYPLA2, FP-Rh probe fluorescence polarization; inhibition, % at 5.9 µM; 320,000 tested, 0.38% active;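 active means inhibition above the screen-wide mean plus 3 SD, limit set per campaign, cut at about 26% in these data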;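 further: 0% = LYPLA2 with DMSO and 100% = wells lacking LYPLA2 enzyme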
PAFAH1B3 FP inh: blocks human PAF acetylhydrolase 1B catalytic subunit 3. AID 492972. recombinant PAFAH1B3, FP-rhodamine probe, fluorescence polarization. inhibition, % at 3.39 µM. 340,000 tested, 0.28% active;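 active means inhibition above the screen-wide average of all tested compounds plus 3 SD, cut at about 25% in these data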;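 further: 0% = enzyme with DMSO only and 100% = wells lacking PAFAH1B3 protein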
PAD4 FP inh: inhibitors of human PAD4 | recombinant PAD4, RCA probe fluorescence polarization | inhibition, % at 6.36 µM | 330,000 tested, 0.41% active | AID 485272;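 active means percent inhibition above a cutoff equal to the mean of all tested compounds plus 3 SD, cut at about 15% in these data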;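 further: 0% = PAD4 with RCA probe and DMSO and 100% = probe without PAD4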
PME-1 inh: blocks human protein phosphatase methylesterase 1. Q9Y570. 320,000 tested, 0.53% active. recombinant PME-1, FP-Rh probe fluorescence polarization. inhibition, % at 5.9 µM;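 active means inhibition above the campaign mean of all compounds plus 3 SD, cut at about 26% in these data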;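 further: competitive labeling of PME-1 active site by serine hydrolase directed probe; 0% = PME-1 with DMSO and 100% = wells lacking PME-1 enzyme; inhibitors block probe labeling so polarization falls and inhibition rises; many of its hits are not listed in these tables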
Target sequence (Q9Y570 whole entry, looked up): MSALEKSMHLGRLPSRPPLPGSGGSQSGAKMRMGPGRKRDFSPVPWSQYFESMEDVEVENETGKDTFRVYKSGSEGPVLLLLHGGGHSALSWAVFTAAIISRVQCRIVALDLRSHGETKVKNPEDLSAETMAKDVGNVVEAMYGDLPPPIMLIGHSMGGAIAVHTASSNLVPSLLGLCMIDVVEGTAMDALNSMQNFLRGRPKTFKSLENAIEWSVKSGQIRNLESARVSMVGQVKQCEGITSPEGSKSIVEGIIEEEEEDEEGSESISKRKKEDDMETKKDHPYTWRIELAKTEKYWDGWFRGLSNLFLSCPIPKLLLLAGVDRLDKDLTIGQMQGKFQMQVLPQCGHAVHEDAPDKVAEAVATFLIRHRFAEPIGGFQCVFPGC
GSTO1 inh: blocks human GSTO1 in RBBP9 counter-screen; AID 1974; inhibition, % at 5.96 µM; P78417; 300,000 tested, 1.1% active; recombinant GSTO1, activity-based probe fluorescence polarization;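 active means inhibition above the campaign mean inhibition plus 3 SD, cut at about 35% in these data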;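 further: 0% = GSTO1-1 with DMSO and 100% = wells lacking GSTO1-1 enzyme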
Target sequence (P78417 whole entry, looked up): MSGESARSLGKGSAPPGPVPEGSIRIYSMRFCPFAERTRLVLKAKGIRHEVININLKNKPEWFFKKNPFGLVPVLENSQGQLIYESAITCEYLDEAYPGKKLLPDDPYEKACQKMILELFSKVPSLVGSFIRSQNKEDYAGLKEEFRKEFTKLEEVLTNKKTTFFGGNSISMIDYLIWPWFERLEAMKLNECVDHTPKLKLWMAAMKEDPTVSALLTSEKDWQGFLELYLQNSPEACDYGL
pPAFAH inh: inhibitors of human plasma PAF acetylhydrolase (pPAFAH); Q13093; recombinant pPAFAH, FP-rhodamine probe fluorescence polarization; inhibition, % at 3.39 µM; 330,000 tested, 1.5% active;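 active means inhibition above the mean inhibition across the screen plus 3 SD, cut at about 25% in these data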;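 further: inhibitors block binding of the rhodamine activity-based probe so polarization drops; 0% = enzyme with DMSO and 100% = wells lacking pPAFAH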
LYPLA1 counter: counter-screen for PME1 inhibitors: inhibitors of human LYPLA1. O75608. recombinant LYPLA1, FP-Rh probe fluorescence polarization. inhibition, % at 5.9 µM. 320,000 tested, 0.16% active;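 active means inhibition above the mean of all tested compounds plus 3 SD, set per campaign, cut at about 14% in these data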;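 further: inhibitors block serine hydrolase probe labeling of LYPLA1 so polarization falls; 0% = enzyme with DMSO and 100% = wells lacking LYPLA1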
Target sequence (O75608 whole entry, looked up): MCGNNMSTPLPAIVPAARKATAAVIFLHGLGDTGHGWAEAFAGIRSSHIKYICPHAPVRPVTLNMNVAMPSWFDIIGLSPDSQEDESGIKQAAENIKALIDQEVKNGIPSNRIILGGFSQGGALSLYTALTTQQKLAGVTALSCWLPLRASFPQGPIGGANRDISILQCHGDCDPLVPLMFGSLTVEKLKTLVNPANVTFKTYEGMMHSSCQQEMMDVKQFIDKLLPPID
PAFAH2 inh: PAFAH2 (human) inhibition | Q99487 | recombinant PAFAH2, FP-rhodamine activity probe, fluorescence polarization | inhibition, % at 3.39 µM | 340,000 tested, 0.99% active;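 active means inhibition above the mean over all tested compounds plus 3 SD, cut at about 30% in these data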;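 further: inhibitors block probe labeling of enzyme so polarization drops; 0% = enzyme with DMSO and 100% = wells lacking PAFAH2 protein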
Numbers without * were called inactive; x = not tested or not shown; & = joins results of further samples. Only part of the results is shown. The share of hits here may be higher or lower than overall.

SMILES	LYPLA2 counter	PAFAH1B3 FP inh	PAD4 FP inh	PME-1 inh	GSTO1 inh	pPAFAH inh	LYPLA1 counter	PAFAH2 inh
c1ccc(SCc2nc(-c3cccnc3)no2)cc1	-4	5	-5	-1	9	-6	0	3
Cc1noc(NS(=O)(=O)c2ccc(NS(=O)(=O)c3ccc(Cl)cc3)cc2)c1C	x	11	-3	x	x	3	x	-2
O=S(=O)(NC1=NCCCCC1)c1ccc2sc(NS(=O)(=O)c3ccc4ccccc4c3)nc2c1	-6	4	30*	-5	-42	11	-2	5
COc1ccc(Cc2n[nH]c(=S)n2NC(=O)Nc2ccc(Cl)c(Cl)c2)cc1	-51	-4	-8	-44	-7	-45	-29	-23
COc1ccc(C(C(=O)NC2CCCCC2)N(C(=O)c2ccccn2)c2cccnc2)c(OC)c1 (centres undefined)	-11	3	3	-6	8	-3	-4	7
O=C(CCN1C(=O)S/C(=C/c2ccccc2)C1=O)Nc1ccc(O)c(C(=O)O)c1	7	8	-2	7	8	5	-1	5
O=C(COc1ccc(Br)cc1)OCc1nnc(-c2ccccc2)o1	3	6	-5	-3	3	21	3	8
Cc1cccc(NC(=S)N/C(=N/S(=O)(=O)c2ccccc2)c2ccccc2)c1	13	7&1	3	3	0	0	3	7&12
O=C(NCC12CC3CC(CC(C3)C1)C2)c1nc2ncccn2n1	-6	0	-6	-6	-3	5	-1	11
O=C(CC12CC3CC(CC(C3)C1)C2)NC(Cc1ccccc1)C(=O)O (centres undefined)	-3	6	-5	1	1	-3	0	3
O=C(O)CC(NC(=O)C12CC3CC(CC(C3)C1)C2)c1ccc(F)cc1 (centres undefined)	-6	2	3	-3	3	-1	2	4
CCc1ccc(NC(=O)CN(CC(=O)Nc2ccc(CC)cc2)CC(C)O)cc1 (centres undefined)	-6	2	-2	-5	13	0	2	-6
Cc1ccc(CNC(=O)COC(=O)CSc2ccc(Br)cc2C)cc1	7	5	-1	2	4	14	-3	4
COc1cc(NS(=O)(=O)c2ccc(NS(=O)(=O)c3ccc(C)cc3)cc2)nc(OC)n1	4	9	1	-7	13	0	2	-1
CC1(C)CC2CC(C)(CN2C(=S)NC(=O)c2ccccc2Cl)C1 (centres undefined)	4	10	2	4	-12	7	0	0
Cc1ccc(SCC(=O)OCC(=O)NCCC2=CCCCC2)cc1	-2	4	1	2	4	14	3	2
O=C(COc1ccc2c(c1)CCC2)NCc1ccc(Cl)cc1	4	2	-3	4	15	10	-1	4
Cc1nc(CS(=O)c2ccc(Cl)cc2)cc(NCc2ccc(Cl)cc2Cl)n1 (centres undefined)	6	2	-2	14	-2	2	1	-1
CC/C(CC(C)(C)c1ccccc1)=N\O	-4	-8	-3	1	0	1	1	8
CCOC(=O)c1c(NC(=O)C(C)Sc2nnc(C)c(=O)[nH]2)sc2c1CCCC2 (centres undefined)	1	6	-5	-8	-46	15	0	-6
CC(c1ccon1)N(C)C(=O)CCc1nnc(C2(c3ccc(Cl)cc3)CCC2)o1 (centres undefined)	0	4	0	-6	1	6	1	-2
COc1ccccc1/C=C/C=N/n1c(-c2ccncc2)n[nH]c1=S	5	5	-2	0	1	-3	2	6
C/C(=N\S(=O)(=O)c1ccc(C)cc1)NC(=S)Nc1ccc(C)cc1	3	0	-4	5	8	4	-1	-3
Cc1ccc(CNC(=O)C(Cc2ccccc2)NS(=O)(=O)c2ccc(Br)s2)cc1 (centres undefined)	-14	1	-3	-2	-7	7	-8	-11
CC(C)n1c(CNC(=O)c2ccccc2F)nnc1SCC(=O)c1ccc(F)cc1	x	7	x	x	x	x	x	10

Five structures out of the list, arranged by molecular weight, highest first.
SMILES	LYPLA2 counter	PAFAH1B3 FP inh	PAD4 FP inh	PME-1 inh	GSTO1 inh	pPAFAH inh	LYPLA1 counter	PAFAH2 inh
O=S(=O)(NC1=NCCCCC1)c1ccc2sc(NS(=O)(=O)c3ccc4ccccc4c3)nc2c1	-6	4	30*	-5	-42	11	-2	5
Cc1noc(NS(=O)(=O)c2ccc(NS(=O)(=O)c3ccc(Cl)cc3)cc2)c1C	x	11	-3	x	x	3	x	-2
O=C(CCN1C(=O)S/C(=C/c2ccccc2)C1=O)Nc1ccc(O)c(C(=O)O)c1	7	8	-2	7	8	5	-1	5
Cc1ccc(SCC(=O)OCC(=O)NCCC2=CCCCC2)cc1	-2	4	1	2	4	14	3	2
O=C(COc1ccc2c(c1)CCC2)NCc1ccc(Cl)cc1	4	2	-3	4	15	10	-1	4

(list continues)
SMILES	LYPLA2 counter	PAFAH1B3 FP inh	PAD4 FP inh	PME-1 inh	GSTO1 inh	pPAFAH inh	LYPLA1 counter	PAFAH2 inh
COC(=O)c1cccc(NC(=O)NC2CCCN2S(=O)(=O)c2ccc(Cl)cc2)c1 (centres undefined)	x	2	x	x	x	x	x	-9
Cc1cc(C(=O)NCCc2ccc(Cl)cc2)c2ccccc2n1	6	-7	-5	5	0	6	0	-3
CC(C)c1ccc(NC(=O)CN(Cc2ccccc2)S(C)(=O)=O)cc1	-1	3	-2	-5	-5	-2	-1	-5
COC(=O)N/N=C/c1ccc(OCCSc2ccc(Cl)cc2)c(OC)c1	-5	-4	-8	-17	-1	10	-2	-3
CCc1cc(C(=O)c2ccc(OC)cc2)c(NC(=O)CN2CCN(C)CC2)s1	-9	0	-3	-5	0	-3	1	-3
Cc1ccc(S(=O)(=O)N2[C@@H](c3ccc(Cl)cc3)C(C(=O)O)=CC[C@H]2c2ccc3c(c2)OCO3)cc1	1	-3	2	0	-7	3	1	2
CCc1ccc(NC(=O)CSc2nnc(CNC(=O)c3ccc(OC)cc3)o2)cc1	8	5	-3	3	6	2	4	5
CC(NC(=O)CCC(=O)N1CCN(S(=O)(=O)c2ccc(Cl)cc2)CC1)c1ccccc1 (centres undefined)	0	3	-4	-6	4	6	-3	9
O=C(O)CC(NC(=O)C12CC3CC(CC(C3)C1)C2)c1cccc([N+](=O)[O-])c1 (centres undefined)	1	3	-6	-1	13	7	3	4
O=C(NCCO)C1(c2ccc(Cl)cc2)CCCC1	0	5	4	3	0	3	2	-1
O=c1[nH]c(C2CCCN(S(=O)(=O)c3ccc(F)cc3)C2)nc2c1nnn2Cc1ccc(F)cc1 (centres undefined)	4	9	-6	24	12	2	2	2
N/C(=N\OC(=O)CCCc1ccccc1)c1ccc(Br)cc1	5	6	0	5	-2	1	3	6
CCCc1[nH][nH]c(=O)c1C(c1ccc(Br)cc1)C(C#N)C#N (centres undefined)	1	3	4	-1	0	6	-3	4
C=CCN(c1ccc(Cl)cc1)S(=O)(=O)c1cccc(C(=O)O)c1	-7	4	-4	-8	-6	-1	-1	-10
O=C(Nc1c(C(=O)O)[nH]c2ccc(F)cc12)c1cccc(C(F)(F)F)c1	1	10	4	11	-10	17	4	4
Cc1nc(NC(C)c2ccccc2)sc1C(=O)Nc1ccccc1 (centres undefined)	3	2	-7	-3	-8	0	3	11
Cc1ccc(SCCC(=O)Nc2nccs2)cc1	-4	-2	-1	-1	2	5	4	3
COc1ccc(OC)c(NS(=O)(=O)c2cccs2)c1	2	1	0	-1	-6	-1	2	-5
CCN(c1ccccc1)S(=O)(=O)c1ccc2[nH]c(=O)c(=O)[nH]c2c1	5	7	3	-1	4	5	4	3
Cc1ccc(CSCCNC(=O)CSc2ccccc2)cc1	-1	1	-1	1	6	9	-4	3
Cc1ccc(S(=O)(=O)n2ccc3c(OCCOCCNCc4ccc(F)cc4)cccc32)cc1	-4	0	4	-5	-1	-2	-7	-16
O=C(CSc1ccc(Cl)cc1)OCC(=O)N1CCN(c2ccccc2)CC1	x	-1	x	x	x	x	x	12
CC(=O)Nc1ccc(S(=O)(=O)NC(CC(=O)O)c2ccc(OC(C)C)cc2)cc1 (centres undefined)	-1	4	-3	0	-3	0	0	-1
COC(=O)c1c(O)cc(C(C)(C)C)n(-c2ccccc2)c1=O	-2	0	-6	-7	3	0	-2	1
Clc1ccc(SCCCCn2cncn2)cc1	4	4	-3	-2	-4	4	-2	0

Other structures follow.
SMILES	LYPLA2 counter	PAFAH1B3 FP inh	PAD4 FP inh	PME-1 inh	GSTO1 inh	pPAFAH inh	LYPLA1 counter	PAFAH2 inh
O=C(O)c1cc(-c2ccccc2)n(-c2ccc(Cl)cc2)n1	8	10	1	-2	16	0	-1	3
Cc1ccc(SCc2cc(=O)[nH]c(SCC(=O)Nc3cc(Cl)ccc3Cl)n2)cc1	-9	-5	-4	1	-10	-4	-4	7
CCOC(=O)Cn1c(=O)cnc2ccccc21	5	7	2	9	4	4	2	8
Cc1ccc(S(=O)(=O)N2[C@@H](c3ccc(F)cc3)C(C(=O)O)=C[C@H]2CC2CCCC2)cc1	x	-2	-2	x	x	7	x	7
Cc1ccc(SCCC(=O)OC(C(=O)NC(N)=O)C(C)C)cc1 (centres undefined)	0	1	-7	-4	5	-1	-2	5
O=C1CC[C@H](O)CCN1CCSc1ccc(Br)cc1	-1	18	1	-5	x	2	-4	2
O=C(CC12CC3CC(CC(Br)(C3)C1)C2)Nc1nncs1	-4	6	-3	-4	1	2	-3	2
CC(NC(=O)C1CCC1)c1ccc(Br)cc1 (centres undefined)	3	6	3	-7	-1	0	-2	-3
O=C(CN1CCN(S(=O)(=O)c2ccc(Cl)cc2)CC1)NCC1(N2CCOCC2)CCCCC1	3	-4	-6	14	x	0	-2	6
O=C(NCc1ccccn1)c1cccc(NS(=O)(=O)c2ccc(Br)cc2)c1	3	12	-3	8	x	0	4	2
O=C(O)C(C=C(Cl)Cl)N1CCOCC1 (centres undefined)	x	0	x	x	x	x	x	-5
Cc1ccc(SCCC(=O)NNC(=O)c2ccccc2F)cc1	x	4	1	x	x	15	x	-1
CCOc1ccccc1OCCCC(=O)N1CCN(S(=O)(=O)c2ccc(Cl)cc2)CC1	-3	2	-2	10	x	1	-5	6
C=CCn1c(CSCc2ccccc2)nnc1SCC(=O)NCc1ccccc1	-3	5	1	-4	2	5	-2	13
COc1ccc(S(=O)(=O)NCCSCc2ccc(Cl)cc2)cc1NC(C)=O	x	4	x	x	x	x	x	6
Cc1onc(-c2ccccc2)c1C(=O)Nc1nnc(COc2ccc(Cl)cc2)s1	-3	6	5	0	-7	-1	-1	3
Cc1ccc(CNC(=O)C(=O)NCC2OCCCN2S(=O)(=O)c2cccs2)cc1 (centres undefined)	-5	1	-1	-2	-7	7	-1	0
CCOC(=O)c1cc(=O)n(Cc2ccccc2C)c2ccccc12	-4	12	-2	5	-6	5	-1	-1
Cc1noc(C)c1COc1ccccc1C(=O)NCCc1ccc(Cl)cc1	1	16	-1	7	-1	4	-1	0
NNC(=O)c1cccc(COc2ccc(Br)cc2)c1	-15	0	-3	-22	5	-3	-11	-13
CCc1ccc([C@@H]2CC=C(C(=O)O)[C@H](c3ccc(Cl)cc3)N2S(=O)(=O)c2ccc(C)cc2)cc1	-8	-3	-3	-9	-35	9	-5	12
Cc1cc(NS(=O)(=O)c2ccc(NS(=O)(=O)c3ccc(Br)cc3)cc2)no1	0	0	2	2	0	0	-3	4
c1ccc2[nH]c(SCc3cn4cccnc4n3)nc2c1	4	6	2	-4	-2	1	-2	-4
CC(=O)c1ccc(NS(=O)(=O)c2ccc(C(C)(C)C)cc2)cc1	-2	1	-2	3	6	1	0	7
COc1cc(C(c2c(C)[nH][nH]c2=O)c2c(C)[nH][nH]c2=O)ccc1OS(=O)(=O)c1ccccc1	3	4	-16	-2	-85	10	-3	2

PAD4 FP inh, hit marks shown above.
mol	PAFAH1B3 FP inh	PAD4 FP inh	PME-1 inh	pPAFAH inh	PAFAH2 inh
O=S(=O)(NC1=NCCCCC1)c1ccc2sc(NS(=O)(=O)c3ccc4ccccc4c3)nc2c1	4	30*	-5	11	5

Assay outcomes (PubChem BioAssay)
